# HIV TAR-Tat: HIV-1 TAR-Tat binding disruption. HIV-1 TAR RNA, Tat peptide displacement FRET; stronger effect = higher value. z-score (no concentration beside the values). 100,000 tested, 0.6% active. AID 1259389;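 note: score is relative to mean and SD of negative controls; some compounds called inactive have numbers as strong as hits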
# CDC25B CDK2 inh: human CDC25B-CDK2/CyclinA binding inhibition. P30305+P24941. HTRF CDC25B-CDK2/CyclinA binding, anti-His/anti-Flag; stronger effect = higher value. z-score (no concentration beside the values). 94,000 tested, 0.72% active;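 note: score is relative to mean and SD of negative controls; strong numbers were not always called active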
# Numbers without * were called inactive; · = not tested or not shown.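 Rule for the calls: active = z-score from 3 up in half or more of its runs; inactive = the rest.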
# A first look, 14 compounds:
molecule	CDC25B CDK2 inh	HIV TAR-Tat
OC1(C(F)(F)F)CC(c2ccncc2)=NN1 (configuration not stated)	-0.3	·
COc1ccc(OCC(=O)Nc2nc3c(s2)CC(C(C)(C)C)CC3)cc1 (configuration not stated)	-0.81	-0.81
CC(=O)OCCOCn1cc(F)c(=O)[nH]c1=O	-0.11	-0.66
CCOC(=O)C1C(=O)NC(N2CCc3ccccc32)=NC1c1ccco1 (configuration not stated)	-0.68	0.85
CN(C)/C=C(\C#N)C(=O)NCc1ccc(F)cc1F	-1.9	·
CCOC(=O)C1=C(C)N=C2SCCC(=O)N2C1c1ccc(OC)cc1 (configuration not stated)	-1.3	0.46
CCCCN(CC)c1ncnc2c1cnn2-c1ccc(C)cc1	·	1.8
CC1CCC(NC(=O)Cn2cc(S(=O)(=O)NC(C)C)c(S(=O)(=O)NC(C)C)c2)CC1 (configuration not stated)	·	1.5
N#Cc1cc(Cl)c(N2CCOCC2)cc1C#N	-0.41	·
COC(=O)CSc1cc(-c2ccccc2)nc(C)n1	-1.5	1.5
O=C(CCn1c(=S)[nH]c2cc3c(cc2c1=O)OCO3)NCc1ccco1	0	·
N/C(CS(=O)(=O)c1ccccn1)=N\OC(=O)c1ccc(Cl)cc1	-0.02	·
CC1CCC(NC(=O)C2(C)Cc3ccccc3C(=O)N2C2CCCC2)CC1 (configuration not stated)	-0.78	2.8
O=C(CCCn1c(=O)c2cccn2c2cccnc21)N1CCC(N2CCCCC2)CC1	·	1.5

# The listing, previewed entries included:
molecule	CDC25B CDK2 inh	HIV TAR-Tat
OC1(C(F)(F)F)CC(c2ccncc2)=NN1 (configuration not stated)	-0.3	·
COc1ccc(OCC(=O)Nc2nc3c(s2)CC(C(C)(C)C)CC3)cc1 (configuration not stated)	-0.81	-0.81
CC(=O)OCCOCn1cc(F)c(=O)[nH]c1=O	-0.11	-0.66
CCOC(=O)C1C(=O)NC(N2CCc3ccccc32)=NC1c1ccco1 (configuration not stated)	-0.68	0.85
CN(C)/C=C(\C#N)C(=O)NCc1ccc(F)cc1F	-1.9	·
CCOC(=O)C1=C(C)N=C2SCCC(=O)N2C1c1ccc(OC)cc1 (configuration not stated)	-1.3	0.46
CCCCN(CC)c1ncnc2c1cnn2-c1ccc(C)cc1	·	1.8
CC1CCC(NC(=O)Cn2cc(S(=O)(=O)NC(C)C)c(S(=O)(=O)NC(C)C)c2)CC1 (configuration not stated)	·	1.5
N#Cc1cc(Cl)c(N2CCOCC2)cc1C#N	-0.41	·
COC(=O)CSc1cc(-c2ccccc2)nc(C)n1	-1.5	1.5
O=C(CCn1c(=S)[nH]c2cc3c(cc2c1=O)OCO3)NCc1ccco1	0	·
N/C(CS(=O)(=O)c1ccccn1)=N\OC(=O)c1ccc(Cl)cc1	-0.02	·
CC1CCC(NC(=O)C2(C)Cc3ccccc3C(=O)N2C2CCCC2)CC1 (configuration not stated)	-0.78	2.8
O=C(CCCn1c(=O)c2cccn2c2cccnc21)N1CCC(N2CCCCC2)CC1	·	1.5
Cc1cccc(CN2CCN(CC3CC4C=CC3C4)CC2)c1 (configuration not stated)	-0.76	0.03

# Next structures.
molecule	CDC25B CDK2 inh	HIV TAR-Tat
NC(=O)CCCC1=NS(=O)(=O)c2ccccc2N1	·	0.19
O=[N+]([O-])c1cnc(Sc2n[nH]c(-c3cccs3)n2)s1	-3.5	·
O=C(Nc1nc(-c2cccs2)ns1)C(c1ccccc1)c1ccccc1	1	-0.61
COC(=O)c1cc(NC(=O)c2cccc3c(Br)cccc23)cc(C(=O)OC)c1	-5.5	·
CCC(C)NC(=O)N1CCC2(CC1)c1cccn1-c1ccc(C)cc1N2CC (configuration not stated)	·	0.67
CCCN1CCN(c2nnc(-n3cccc3CNc3cccc(F)c3)s2)CC1	·	0.83
CCCSc1nnc2c(n1)[nH]c1ccccc12	-0.12	-0.24
O=C1CCC(O)N1CCc1cnc[nH]1 (configuration not stated)	-2.2	·
CC(C)OCCCNC(=O)C1CCN(c2nn3c(=O)c4c(nc3s2)CCCC4)CC1	·	2.8
NC(=O)CSc1ccc2nnc(-c3ccc(Cl)cc3)n2n1	-1.7	·
COc1ccc(/C=N/NC(=S)NCCc2ccccc2)cc1	-1.8	·
Oc1ccc2ncccc2c1C(Nc1ccccn1)c1ccc(Cl)cc1 (configuration not stated)	2.6	2.1
O=C(CCc1nc2sc3c(c2c(=O)[nH]1)CCCCC3)N1CCN(c2ccccn2)CC1	·	0.9
O=C(NCc1cccs1)c1ccc(N2CCCc3ccccc32)s1	·	0.41
Cc1nn(C)c2c1c(C(F)(F)F)cc(=O)n2Cc1ccc(F)cc1	·	0.32

# (more compounds)
molecule	CDC25B CDK2 inh	HIV TAR-Tat
COc1ccc(CN[C@H]2CS(=O)(=O)C[C@@H]2S(=O)(=O)c2ccc(F)c(C)c2)cc1	-2	-0.77
O=S1(=O)CCC(S(=O)(=O)N2CCOCC2)C1 (configuration not stated)	-0.69	0.06
CC(=O)NC1=NN(C(C)=O)C(c2ccccn2)S1 (configuration not stated)	0.4	·
CC1=C(C(=O)Nc2ccc(Cl)cc2C(=O)NC2CCCC2)SCCO1	·	1.5
Cc1ccc(-c2c(N3CCN(C)CC3)c(=O)c2=O)cc1	·	2.3
O=C(Cn1ncc2c1-c1ccccc1OC2)NC1CCCCC1	-1.2	1.9
COC(=O)C1=C(C)NC2=C(C(=O)CC(c3ccc(OC)cc3)C2)C1c1cc(Cl)c(O)c(OC)c1 (configuration not stated)	-1.4	0.56
O=C1NC(=S)S/C1=C\c1cccc(OC(=O)c2cccc3ccccc23)c1	1.4	·
O=S(=O)(NCCc1ccc(Cl)cc1)c1ccc2[nH]c3c(c2c1)CCCC3	·	0.61
Cc1cc(N2C(=O)CC(Cc3ccccc3)C2=O)no1 (configuration not stated)	-0.19	0.39
Cc1ccc(CNc2nc(-c3ccccc3F)no2)cc1	·	0.39
O=C(O)COCc1ccc(Br)cc1	-1.2	·
CCc1cnc(NS(=O)(=O)c2cc(Cl)sc2Cl)nc1-c1c(F)cccc1F	-0.76	·
Fc1ccc(CN2CCc3nc(Nc4ccc5c(c4)OCO5)ncc3C2)c(F)c1	·	0.73
CCOCCCNC(=O)c1c(NC(=O)c2cc(=O)c3c(C)cc(C)cc3o2)sc2c1CCCC2	-1.2	-0.2

# (continued)
molecule	CDC25B CDK2 inh	HIV TAR-Tat
CCN1CCN(c2nc3ncn(CC(=O)Nc4ccc(Br)cc4F)c(=O)c3s2)CC1	·	0.32
COc1ccc(-c2nc3n(n2)C(=O)CC(c2ccc4c(c2)OCO4)S3)cc1 (configuration not stated)	·	-0.07
Cc1cccc(C)c1NC1=NC2CS(=O)(=O)CC2S1 (configuration not stated)	-1.1	-0.24
CC(=O)c1sc(C2(c3ccc(Cl)cc3Cl)CC2)nc1C	-2.4	·
Cc1ccc(S(=O)(=O)N(CCS(=O)(=O)N2CCNCC2)CC(C)c2ccccc2)c(C)c1 (configuration not stated)	·	1.9
CC1CCC(Nc2c(-c3ccc(F)cc3)nc3ncccn23)CC1 (configuration not stated)	·	-0.63
CCOC(=O)C1=C(C)N=C2c3ccccc3C(=O)C2C1c1ccccc1 (configuration not stated)	-1.1	0.07
CCOC(=O)c1[nH]c(C)c(C(=O)NC(C)C)c1C	-0.28	·
NC(=O)CSc1ncc(CO)n1Cc1ccc(F)cc1	·	0.25
Cc1ccc(C)c(CSc2nnc(C)n3c2cc2occc23)c1	·	-4.3
Cc1ccc(S(=O)(=O)c2c[nH]c3ccc(F)cc3c2=O)cc1F	-2.9	1.1
Cc1ccc(NS(=O)(=O)c2c(C)nc3scc(C)n3c2=O)cc1C	-1	2
CC(CN1CCOCC1)OC(=O)c1ccc2c(c1)OCCO2 (configuration not stated)	0.09	0.24
Cc1noc(/C=C/c2cccs2)c1S(=O)(=O)N1CCC(C(=O)NC2CCCC2)CC1	-1.4	-0.99
COc1ccc2c(c1)CC(NC(=O)NCCN1CCCC1)CO2 (configuration not stated)	·	1.3

# Other entries
molecule	CDC25B CDK2 inh	HIV TAR-Tat
O=c1n(Cc2ccc(Cl)cc2)nc2n1-c1ccccc1OC2	0.04	0.87
Cc1c2c(=O)n(-c3nc4ccccc4s3)nc-2cc(O)n1CCN1CCOCC1	-2.5	-0.26
CC(=O)C1=C(O)C(=O)N(CCCN2CCOCC2)C1c1ccc2c(c1)OCO2 (configuration not stated)	-2.1	·
COC(=O)c1sc2ccccc2c1S(=O)(=O)N1CCN(c2cccc(OC)c2)CC1	·	-1.1
Cc1ccc(-c2nc(-c3cc4c([nH]c3=O)CC(c3ccccc3)CC4=O)sc2C)cc1 (configuration not stated)	-2.4	-0.51
Cc1ccnc(SCC(=O)N2CCC(c3ccncc3)CC2)n1	·	1.5
CCc1ccc(CN2CCN(Cc3ccc4c(c3)OCO4)CC2)cc1	1.9	·
COC(=O)C1=C(NNc2ccccc2)CSC1	-2.6	·
CC(C)NC(=O)CCc1nnc2ccc(NCc3ccc4c(c3)OCO4)nn12	·	1.6
O=C(NCC1CCCO1)c1cc(-c2ccc(Br)cc2)n[nH]1 (configuration not stated)	·	0.15
O=C1CSC(c2ccccc2)N1c1ccc(Oc2ccccc2)cc1 (configuration not stated)	-0.74	·
Cc1ccc(-c2ccc(=O)[nH]n2)cc1S(=O)(=O)N1CCc2ccccc2C1	-1.4	-0.14
O=C(CSC1=NS(=O)(=O)c2ccccc2N1)c1ccc(Cl)cc1	·	-0.51
CC(C)NC(=O)C1CCN(c2nc3cccnc3s2)CC1	·	0.75
O=C(NCc1ccc2c(c1)OCO2)c1sc2ncccc2c1-n1cccc1	·	0.34

# Other records.
molecule	CDC25B CDK2 inh	HIV TAR-Tat
CC(C)Cc1ccc(S(=O)(=O)N2CCn3c(nc4ccccc43)C2)cc1	-2.1	-1
CCOC(=O)c1c(NC(=O)COc2ccccc2Br)sc2c1CCC2	-5.5	0.56
CCOC(=O)c1c(S(=O)(=O)NCCC2=CCCCC2)c(C)n(C)c1C	·	0.46
CC1CCN(S(=O)(=O)c2cn(CC(=O)NC3CCCCC3)cn2)CC1	·	0.6
Nc1nc(NCc2ccco2)nc(Nc2ccccc2)c1[N+](=O)[O-]	·	0.94
COC(=O)c1ccc(C(=O)OC)c(NS(C)(=O)=O)c1	-0.05	1.2
CC(=O)Oc1ccccc1C1OC(c2cn(C)c3ccccc23)=NN1C(C)=O (configuration not stated)	·	0.43
O=C(COc1ccccc1Cl)Nc1ccc(OCc2cc(=O)n3c4c(sc3n2)CCCC4)cc1	0.36	-1.5
Cc1csc(NC(=O)CSc2nnc3ccc(-c4ccncc4)nn23)n1	·	0.45
CCC(Sc1nncn2c1cc1sccc12)C(=O)N1CCOCC1 (configuration not stated)	·	3.6
Cc1nn(CC(=O)NC2CCCCC2C)c(=O)c2c1sc1ccccc12 (configuration not stated)	-2	-3.4
CCCN1C(SCC(=O)NC(C)CC)=NS(=O)(=O)c2ccccc21 (configuration not stated)	·	2.3
O=C(Nc1cccc(F)c1)N1CCN(c2nc3ccccc3s2)CC1	-2.5	0.74
O=C(O)C1Cc2ccccc2CN1S(=O)(=O)c1ccccc1 (configuration not stated)	-2.3	0.31
CCOC(=O)c1sc(NC(=O)c2cc(=O)c3cc(CC)ccc3o2)c(C(=O)OCC)c1C	-1.9	-0.06

# Continued:
molecule	CDC25B CDK2 inh	HIV TAR-Tat
Cc1ccc(S(=O)(=O)c2cc3cc(Br)ccc3oc2=O)cc1C	-18	·
O=C(NCc1ccc(F)cc1)NC(c1ccc(Cl)cc1)c1nnc(-c2ccccc2)o1 (configuration not stated)	·	1.5
Cc1noc2ncnc(N3CCN(Cc4ccc5c(c4)OCO5)CC3)c12	·	0.88
Cc1ncn2cc(-c3ccc(Cl)cc3Cl)[nH]c(=O)c12	-1.9	·
O=C(c1ccc(CS(=O)(=O)c2ccc(Br)cc2)o1)N1CCN(C2CCCCC2)CC1	·	1.5
CCC1c2ccc(C)n2CCN1C(=O)Nc1cc(C)ccc1C (configuration not stated)	-2.2	-8.2
Cc1c(C(=O)N2CCOCC2)c(S(=O)(=O)N2CCN(C3CCCCC3)CC2)c(C)n1C	·	0.46
O=S(=O)(c1cccc(Cl)c1)c1nnn2c1nc(NCc1ccco1)c1sccc12	·	-0.65
CCC(=O)Nc1nc2nc(C)c(Cl)c(C)n2n1	-0.2	0.05
OC1(c2ccc3ccccc3c2)CCN(Cc2ccccc2)C1 (configuration not stated)	0.41	·
Cc1ccc(CNS(=O)(=O)c2c(C)[nH]c(=O)[nH]c2=O)cc1	·	2.9
CN(CCO)c1ncnc2c1sc1nc3c(cc12)COC(C)(C)C3	·	0.16
Cc1noc2ncnc(N3CCCC(C(=O)NC4CCCCC4)C3)c12 (configuration not stated)	·	0.44
Cc1cc(C)c(C#N)c(SCC(=O)N2CCCCC2)n1	-3.3	1.8
Cc1nn(-c2nc3ccccc3[nH]2)c2c1C(c1cc(F)cc(F)c1)CC(=O)N2 (configuration not stated)	·	1.5

# The list continues:
molecule	CDC25B CDK2 inh	HIV TAR-Tat
Cc1csc2nc(COC(=O)COc3ccc(Cl)cc3)cc(=O)n12	·	-0.27
O=C(c1ccco1)n1nc(-c2cccnc2)nc1NCc1cccs1	0.48	0.77
O=C(O)c1cc(-c2ccc(F)cc2)nc2n[nH]c(-c3ccc(F)cc3)c12	·	2.4
COc1cccc(C2C3=C(CC(C)(C)CC3=O)Nc3cc4c(cc32)OCO4)c1 (configuration not stated)	-0.84	-1.6
O=C(Nc1ccc2snnc2c1)NC1CCCC1	2	1.5
O=C(CN1C(=O)CSc2cccn2-c2ccccc21)NCCN1CCCCC1	·	1.2
O=C(NCCCN1CCC(N2CCCCC2)CC1)C1CCCN(c2nc3cccnc3s2)C1 (configuration not stated)	·	0.66
COc1ccc(NC(=O)NCc2nnnn2-c2ccccc2)c(OC)c1	·	1.7

# Source: PubChem (Center for Chemical Genomics, University of Michigan)
